From PubChem
Vaccinia mCherry – vaccinia inhibition (mCherry reporter); AID 720579; Potency, µM (titrated, usually from 36.5 µM), for inactives: at the highest dose activity change, negative = inhibition, hits mostly inhibitors; hit rate 0.63% among 310,000; Vaccinia virus mCherry reporter infection, fluorescence; about a quarter of the inactives have no number; active = well fitted inhibition curve with a large enough effect; inconclusive = small, poorly fitted or top-dose-only effect; inactive = no such curve, though single readings can be large or run the other way; tested in A549 cells; note: nearly all actives have a fitted effect of over 35% in size; inactives centre near -10
Vaccinia Venus – vaccinia inhibition (Venus reporter); hit rate 0.46% among 330,000; Potency, µM (highest dose often 36.5 µM), without a hit: top-dose activity change, negative = inhibition, usual class: inhibitors; Vaccinia virus Venus reporter expression, fluorescence; active means well fitted inhibition curve with a large enough effect; inconclusive means small, poorly fitted or top-dose-only effect; inactive means no such curve, though single readings can be large or run the other way; tested in A549 cells; note: nearly all actives have a fitted effect of over 30% in size; inactives centre near -10
* hit, by the source's call. % is set by controls: 0 for no effect and ±100 for the full control effect; potency is the fitted concentration of half-maximal effect.

Screening COc1ccc(S(=O)(=O)N2CCC(C(N)=O)CC2)c2ccccc12 returned Vaccinia Venus -19%.
`Cc1ccc(-n2nnnc2SCc2ccccn2)cc1C` gave Vaccinia mCherry -15% and Vaccinia Venus -20%.
COc1ccc(CNS(=O)(=O)NCc2ccccc2)cc1 was read as Vaccinia mCherry -28% and Vaccinia Venus -13%.
`O=C(O)c1ccc(C2Nc3ccccc3-c3nnc(SCc4ccc(Cl)cc4)nc3O2)cc1` (stereo not drawn) gave Vaccinia mCherry -5% and Vaccinia Venus -3%.
Screening Cc1cc(NC(=O)/C=C/c2cccc(Cl)c2)n(-c2nc3ccccc3[nH]2)n1 returned Vaccinia mCherry -18% and Vaccinia Venus -15%.
For CCOCCCn1c(SCC(=O)Nc2ccc(C(N)=O)cc2)nc2ccccc2c1=O the results were Vaccinia mCherry -14% and Vaccinia Venus -3%.
For O=C(NCCN1CCCCC1)c1c(O)c2ccccc2[nH]c1=O the results were Vaccinia mCherry -7% and Vaccinia Venus 0%.
CCCOc1ccc(C(=O)N(CC(C)C)c2c(N)n(Cc3ccccc3)c(=O)[nH]c2=O)cc1 was read as Vaccinia mCherry -1% and Vaccinia Venus -12%.
Screening COc1c(Cl)cc(Cl)cc1CNCCNCC(C)O (stereo not drawn) returned Vaccinia mCherry -14% and Vaccinia Venus -1%.
`CCN(CC)c1ccc(C2C(C(=O)OCCOC)=C(C)NC3=C2C(=O)CCC3)cc1` (stereo not drawn) gave Vaccinia mCherry inactive and Vaccinia Venus -3%.
Screening Cc1cccc(CN2CCN(C3CN(C4CCCC4)S(=O)(=O)C3)CC2)c1 (stereo not drawn) returned Vaccinia mCherry -5% and Vaccinia Venus -3%.
For CCC(=O)N1CCc2cc(CNC(=O)Cc3ccc(F)cc3)ccc21 the results were Vaccinia mCherry -11% and Vaccinia Venus -11%.
CC1COc2ccccc2N1C(=O)c1ccc(Cl)cc1 (stereo not drawn) was read as Vaccinia mCherry -12% and Vaccinia Venus -13%.
For Cc1ccc(S(=O)(=O)NN=C2CCCc3ccccc32)cc1 the results were Vaccinia mCherry -11% and Vaccinia Venus -23%.
`CCn1cc(C(=O)NCCc2ccc(C)cc2)c(=O)c2cc(S(=O)(=O)N3CCc4ccccc4C3)ccc21` gave Vaccinia mCherry -18% and Vaccinia Venus -8%.
`CC(=O)c1cnc2cc(C)nn2c1C` gave Vaccinia Venus -14%.
Cc1ccccc1CN1C(=O)c2ccccc2Sc2ccc(C(=O)NCc3cccs3)cc21 was read as Vaccinia mCherry -4% and Vaccinia Venus -6%.
For Oc1ccccc1-c1n[nH]c(=S)n1Cc1ccccc1 the results were Vaccinia mCherry -10% and Vaccinia Venus -5%.
`CC(C)CC(c1nnnn1CCc1ccccc1)N1CCC(C(N)=O)CC1` (stereo not drawn) gave Vaccinia Venus -17%.
Screening O=S(=O)(Nc1ccc2c(c1)OCCO2)c1ccc2oc3ccccc3c2c1 returned Vaccinia mCherry -28% and Vaccinia Venus -26%.

Two records picked at random from those above:
For CCOCCCn1c(SCC(=O)Nc2ccc(C(N)=O)cc2)nc2ccccc2c1=O the results were Vaccinia mCherry -14% and Vaccinia Venus -3%.
CCCOc1ccc(C(=O)N(CC(C)C)c2c(N)n(Cc3ccccc3)c(=O)[nH]c2=O)cc1 was read as Vaccinia mCherry -1% and Vaccinia Venus -12%.

The listing picks up, starting 5 compounds before the break.
`CC(=O)c1cnc2cc(C)nn2c1C` gave Vaccinia Venus -14%.
Cc1ccccc1CN1C(=O)c2ccccc2Sc2ccc(C(=O)NCc3cccs3)cc21 was read as Vaccinia mCherry -4% and Vaccinia Venus -6%.
For Oc1ccccc1-c1n[nH]c(=S)n1Cc1ccccc1 the results were Vaccinia mCherry -10% and Vaccinia Venus -5%.
`CC(C)CC(c1nnnn1CCc1ccccc1)N1CCC(C(N)=O)CC1` (stereo not drawn) gave Vaccinia Venus -17%.
Screening O=S(=O)(Nc1ccc2c(c1)OCCO2)c1ccc2oc3ccccc3c2c1 returned Vaccinia mCherry -28% and Vaccinia Venus -26%.
`CCN(CC)C(=O)c1sc2c(c1C)c(=O)n(-c1ccc(C)c(C)c1)c(=O)n2CC(=O)NCC1CCCO1` (stereo not drawn) gave Vaccinia mCherry -10% and Vaccinia Venus -7%.
Screening O=S(=O)(c1ccc(NC(=S)N/N=C/c2ccc(O)c(O)c2)cc1)N1CCOCC1 returned Vaccinia mCherry -14% and Vaccinia Venus -18%.
`Oc1ccc(-c2nc3ncccn3c2Nc2ccc3c(c2)OCO3)cc1` gave Vaccinia mCherry -24% and Vaccinia Venus -10%.
`Cc1noc(-c2ccc(N(C)Cc3ccccc3)c([N+](=O)[O-])c2)n1` gave Vaccinia mCherry 0% and Vaccinia Venus 2%.
Screening CCN(Cc1ccccc1)N=Nc1ccccc1 returned Vaccinia mCherry -8% and Vaccinia Venus -7%.
Screening CCc1nc2c(OCc3ccc(F)c(F)c3)cccn2c1N(C)C(=O)C1CC1 returned Vaccinia mCherry inactive and Vaccinia Venus 5%.
For CC(O)c1c(-c2ccccc2)nn(C)c1Cl (stereo not drawn) the results were Vaccinia mCherry inactive and Vaccinia Venus -11%.
c1ccc(-c2cnc(-c3ccccc3)nn2)cc1 was read as Vaccinia mCherry -6% and Vaccinia Venus -9%.
For CCOC(=O)N/N=C/c1ccc(C)o1 the results were Vaccinia mCherry inactive and Vaccinia Venus -9%.
Screening Nc1nc(NCc2ccccc2Cl)n(-c2ccccc2)n1 returned Vaccinia mCherry -17% and Vaccinia Venus 1%.
`COc1ccc(NC(=O)C2Cc3c(-c4cccc(NC(C)=O)c4)ccnc3O2)cc1` (stereo not drawn) gave Vaccinia mCherry -30% and Vaccinia Venus -24%.
For CCOc1cccc(CN2CCC(n3nccc3NC(=O)c3ccc4c(c3)OCO4)CC2)c1 the results were Vaccinia mCherry -10% and Vaccinia Venus -28%.
For O=C(NCCCNC(=O)c1cccnc1)c1ccc(Cl)cc1 the results were Vaccinia mCherry 19% and Vaccinia Venus -3%.
For NC(=O)C1CCN(C(=O)Nc2ccccc2)CC1 the results were Vaccinia mCherry -6% and Vaccinia Venus -9%.
For Cc1ccc(S(=O)(=O)C2(C(=O)NCc3ccc4c(c3)OCO4)CC2)cc1 the results were Vaccinia mCherry -14% and Vaccinia Venus -15%.
COc1cc(-c2c(C#N)c(N)nc3[nH]c(=S)[nH]c(=O)c23)ccc1O was read as Vaccinia mCherry inactive and Vaccinia Venus -5%.
`COc1cc(OC)cc(C(=O)Nc2cccc(NC(C)=O)c2)c1` gave Vaccinia mCherry inactive and Vaccinia Venus -11%.
CCOC(=O)N1CCN(C(=O)c2cc3c(s2)-c2ccccc2OC3)CC1 was read as Vaccinia mCherry -2% and Vaccinia Venus -18%.
CS(=O)(=O)N(CC(=O)Nc1ccccc1C(=O)N1CCCC1)c1ccc2c(c1)OCO2 was read as Vaccinia mCherry -1% and Vaccinia Venus -4%.
For CCOc1ccccc1NC(=O)c1nn(-c2ccc(C)cc2)c(=O)n(C)c1=O the results were Vaccinia mCherry -18% and Vaccinia Venus -16%.
c1ccc(Nc2nc(-c3ccncc3)cs2)nc1 was read as Vaccinia Venus -22%.
`O=C(NCC(=O)N1CCN(S(=O)(=O)c2cccc(F)c2)CC1)c1ccc(Br)o1` gave Vaccinia mCherry -18% and Vaccinia Venus -21%.
CC(NC(C(=O)c1ccccc1)c1ccccc1)c1ccccc1 (stereo not drawn) was read as Vaccinia mCherry -9% and Vaccinia Venus 0%.
Screening COC(=O)CCC(=O)N1CCc2cc(S(=O)(=O)N3CCc4ccccc43)ccc21 returned Vaccinia Venus -9%.
Cc1ccc(N2CC(C(=O)Nc3nnc(SCC(=O)Nc4nc(C)cs4)s3)CC2=O)cc1 (stereo not drawn) was read as Vaccinia mCherry -11% and Vaccinia Venus -7%.
Screening CC(C)(C)n1nnnc1C(c1cccc(C#N)c1)N1CCC(Cc2ccccc2)CC1 (stereo not drawn) returned Vaccinia mCherry -10% and Vaccinia Venus -17%.
For Cn1nnnc1SCCCNCc1ccccc1OCc1ccc(F)cc1 the results were Vaccinia mCherry -11% and Vaccinia Venus -14%.
Screening Cc1cnc(SCc2ccccn2)nc1C1CCCN(C(=O)c2ccc3c(c2)OCO3)C1 (stereo not drawn) returned Vaccinia mCherry -19% and Vaccinia Venus -25%.
Screening COc1ccc(CSc2ncnc3sccc23)cc1F returned Vaccinia mCherry inactive and Vaccinia Venus -13%.
CN(CC(=O)NCc1cccnc1)S(=O)(=O)c1cc(Cl)ccc1Cl was read as Vaccinia mCherry -29% and Vaccinia Venus -22%.
`Cc1ccc(C)c(S(=O)(=O)NCC(=O)Nc2ccc3c(c2)OCO3)c1` gave Vaccinia mCherry inactive and Vaccinia Venus -6%.
For CC(=O)N(C)C[C@@H]1Oc2ncc(C#Cc3ccc(F)cc3)cc2C(=O)N([C@@H](C)CO)C[C@H]1C the results were Vaccinia mCherry -15% and Vaccinia Venus -20%.
Screening CCCCNC(=O)CCn1nc(-c2ccccc2)c2ccccc2c1=O returned Vaccinia mCherry inactive and Vaccinia Venus 1%.
CC12C=CC(=O)C=C1CCC1C2C(=O)C[C@@]2(C)C1CCC2(O)C(=O)CO (stereo partly drawn) was read as Vaccinia mCherry -10% and Vaccinia Venus -10%.
Screening O=C(NCc1ccco1)c1ccc2c(c1)N(Cc1ccccc1)C(=O)CS2 returned Vaccinia mCherry -15% and Vaccinia Venus -11%.
Screening CCCCn1c(N)c(N(CCC(C)C)C(=O)c2ccc3c(c2)OCO3)c(=O)[nH]c1=O returned Vaccinia mCherry -13% and Vaccinia Venus -2%.
Cc1ccc(SCCN2CCN(C)CC2)cc1 was read as Vaccinia mCherry inactive and Vaccinia Venus -19%.
O=C(CNc1ccc(F)cc1)c1ccccc1 was read as Vaccinia mCherry -16% and Vaccinia Venus -8%.
`CC(C)(C)NC(=O)NC(=O)COc1ccccn1` gave Vaccinia mCherry inactive and Vaccinia Venus -12%.
Screening COc1ccccc1CNC(=O)CC(NS(=O)(=O)c1ccc(C)cc1)c1ccco1 (stereo not drawn) returned Vaccinia mCherry inactive and Vaccinia Venus -18%.
`COc1ccc(NC(=O)c2nc(S(=O)(=O)Cc3ccc(C)cc3)ncc2Cl)cc1` gave Vaccinia mCherry inconclusive and Vaccinia Venus inconclusive.
`CCc1nnc(NC(=O)CSc2nnc(C(C)NC(=O)c3ccccc3)n2C)s1` (stereo not drawn) gave Vaccinia mCherry -24% and Vaccinia Venus -9%.
Screening Cc1ccc(NCC(O)Cn2cnc3c2c(=O)n(C)c(=O)n3C)cc1 (stereo not drawn) returned Vaccinia mCherry -13% and Vaccinia Venus -15%.
`Cc1ccc(NC(=O)CNC(=O)OCc2ccccc2)cc1C` gave Vaccinia mCherry 8% and Vaccinia Venus -2%.
CC1CCN(c2c(NCC3CCC(C(=O)N4CCCC(C)C4)CC3)c(=O)c2=O)CC1 (stereo not drawn) was read as Vaccinia mCherry -2% and Vaccinia Venus -16%.
`CCC1Nc2ncnc(N3CCOCC3)c2N(Cc2ccccc2)C1=O` (stereo not drawn) gave Vaccinia mCherry inactive and Vaccinia Venus -5%.
Screening CCc1ccc(NC(=O)CSc2nc3n[nH]c(C)c3c(=N)n2-c2ccccc2C)cc1 returned Vaccinia mCherry inconclusive and Vaccinia Venus inconclusive.
For COc1ccc(N2CCN(C3CCCN(C(=O)CN4CCOC4=O)C3)CC2)cc1 (stereo not drawn) the results were Vaccinia mCherry inactive and Vaccinia Venus -4%.
For O=C(NC1CCCC1)c1ccc(Cl)s1 the results were Vaccinia mCherry inactive and Vaccinia Venus -5%.
For COC(=O)[C@H]1[C@H](C(=O)OC)[C@@H](C(=O)OC)N(c2ccc(OC)cc2)[C@@H]1C(=O)OC the results were Vaccinia mCherry -10% and Vaccinia Venus -9%.
For CCn1c(SCC(=O)NNC(=O)Cc2ccccc2)nnc1-c1ccncc1 the results were Vaccinia mCherry -1% and Vaccinia Venus 3%.
For Cc1ccc(S(=O)(=O)c2nc(-c3ccc(F)cc3)oc2N2CCOCC2)cc1 the results were Vaccinia mCherry inactive and Vaccinia Venus 0%.
Screening Clc1ccc(OCCOCCOc2cccc3cccnc23)c(Br)c1 returned Vaccinia mCherry -18% and Vaccinia Venus -12%.
CCOC(=O)c1cccc(NC(=O)C2CCCN(S(=O)(=O)c3cnc[nH]3)C2)c1 (stereo not drawn) was read as Vaccinia mCherry 5% and Vaccinia Venus -13%.
`CCCNC(=O)C1(C)CCN(C(=O)c2ccc(OC)cc2OC)C1` (stereo not drawn) gave Vaccinia mCherry 0% and Vaccinia Venus 3%.
Screening COc1cc(SC)ccc1C(=O)OCC(=O)NCC(C)C returned Vaccinia mCherry -12% and Vaccinia Venus -4%.
Screening COC(=O)C1=CN(c2ccc(C(C)(C)C)cc2)C(N)=C(C#N)C1c1ccc(OC)cc1 (stereo not drawn) returned Vaccinia mCherry inconclusive and Vaccinia Venus -8%.
Screening Cc1ccc(OC(=O)c2cc(-c3ccc(Cl)cc3)on2)c(C)c1 returned Vaccinia mCherry -15% and Vaccinia Venus 3%.
Screening O=C1SCCC1NS(=O)(=O)c1ccc([N+](=O)[O-])cc1 (stereo not drawn) returned Vaccinia mCherry -18% and Vaccinia Venus 9%.
Screening Cc1ccc(CN2CCCn3nc(C(=O)NCCc4ccc(Cl)cc4)cc3C2=O)cc1 returned Vaccinia mCherry -21% and Vaccinia Venus -16%.
For COc1ccc(NC(=O)C2CCCN2S(=O)(=O)c2ccc3c(c2)CCC(=O)N3)cc1 (stereo not drawn) the results were Vaccinia mCherry -6% and Vaccinia Venus 1%.
